# Rango release inh: inhibitors of RanGTP-induced Rango-importin beta complex dissociation; Biochemical FRET Rango-importin beta, RanGTP-induced dissociation; AID 540253; Potency, µM (titrated, usually from 46.1 µM), inactives show at the highest dose activity change, negative = inhibition; hit rate 0.071% among 340,000; active means falling FRET ratio curve, often poorly fitted, with flat reads before Ran was added; inconclusive means other falling curves, or compound fluorescence or quenching; inactive means flat or rising ratio curve;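 further: potency means the concentration at half of the fitted maximal effect; % of control where 0% means no effect; nearly all actives have a fitted effect of over 45% in size; -100% = wells without RanGTP and RCC1; the record marks most hits as doubtful in a second field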
#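 FRET read at 45 min, room temperature: inhibitors block the CFP/YFP signal rise when RanGTP (0.6 uM Ran, 2 mM GTP, 0.2 uM RCC1) frees Rango (0.1 uM) from importin beta (0.25 uM). Pre-read after 5 min compound exposure flags interference.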
# miR-21 reporter: miR-21 reporter, rising signal; HeLa miR-21 FLuc reporter, luciferase, 48 h; Potency, µM (doses to about 38.3 µM), without a hit: top-dose reporter change, positive = more light; 340,000 tested, under 10 active; AID 2288; active = well fitted rising curve with a large enough effect; inconclusive = small, poorly fitted or top-dose-only effect; inactive = no such curve, though single readings can be large or run the other way;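 further: % of control where 0% means no effect; miR-21 action dims this reporter so a rising signal means less miR-21 action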
#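 Compounds were titrated across several concentrations (up to approximately 40 uM) and incubated 48 hours with HeLa miR-21-FLuc reporter cells (miR-21 target sequence downstream of FLuc, endogenous miR-21). Readout was firefly luciferase luminescence after lytic detection reagent.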
# Rango complex inh: inhibitors of Rango-importin beta complex formation; Q14974; Rango CFP/YFP FRET sensor + importin beta, 45 min; Potency, µM (doses to about 92.2 µM), for the others: at the highest dose inhibition of complex formation; hit rate 0.031% among 340,000; AID 540263; active = rising FRET ratio curve, often small or poorly fitted; inconclusive = mostly compound fluorescence or quenching in the first reads; inactive = flat curves in all reads;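 further: potency means the concentration at half of the fitted maximal effect; 0% = DMSO wells and 100% = buffer wells lacking importin beta; nearly all actives have a fitted effect of over 15% in size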
#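 Inhibition scored from the CFP 486 nm/YFP 530 nm FRET ratio 45 min after adding 0.125 microM importin beta to 50 nM Rango biosensor preincubated 5 min with compound (room temperature, PBS with DTT, Tween-20, BSA). No-importin wells as positive control.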
# GLA inh pH 4.5: alpha-galactosidase A (human) inhibition, pH 4.5; purified enzyme, 4-MU-alpha-Gal fluorescence, pH 4.5; activity change, negative = inhibition, % at 105 µM; 230,000 tested, under 10 active; AID 1467; inconclusive = small, poorly fitted or top-dose-only inhibition, or a rising curve; inactive = flat fitted curve, though single readings scatter; no compound was filed as active;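 further: 0% = full activity with enzyme and -100% = basal without enzyme; dose as in the result columns while the protocol names 77 µM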
# Target sequence (P06280 whole entry, looked up): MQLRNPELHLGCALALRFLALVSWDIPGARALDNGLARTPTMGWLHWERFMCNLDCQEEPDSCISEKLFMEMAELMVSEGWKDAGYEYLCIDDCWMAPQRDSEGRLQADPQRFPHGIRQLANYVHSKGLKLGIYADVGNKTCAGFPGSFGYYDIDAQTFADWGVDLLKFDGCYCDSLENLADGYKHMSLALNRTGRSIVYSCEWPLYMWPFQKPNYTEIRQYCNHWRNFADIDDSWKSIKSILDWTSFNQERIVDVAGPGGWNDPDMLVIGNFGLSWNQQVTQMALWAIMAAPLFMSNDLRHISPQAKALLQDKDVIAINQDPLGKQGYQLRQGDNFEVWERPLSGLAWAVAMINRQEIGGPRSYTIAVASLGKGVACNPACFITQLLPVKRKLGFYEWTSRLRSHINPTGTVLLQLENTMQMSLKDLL
# * marks the source's active call; other numbers are inactive results; ? = inconclusive; nt = no result given; & = joins results of further samples.
GLA inh pH 4.5	Rango complex inh	miR-21 reporter	Rango release inh	canonical_smiles
4.8	6.8%	3.9%	1.9%	CCOC(=O)c1cc(NC(=O)c2ccccc2)c(=O)oc1C(F)(F)F
nt	0.1%	1.7%	7.2%	CSc1nc(=S)n(-c2ccc([N+](=O)[O-])cc2)c(C)c1C(C)=O
nt	-3.9%	nt	-10.5%	Cc1ccc(C(=O)OCC(=O)NC2CC2)cc1S(=O)(=O)N1CCOCC1
nt	1.5%	1.3%	-6.9%	COCCC(=O)N1CCC(Oc2ccc(C(=O)NCc3cccc(C)n3)cc2)CC1
nt	1.3%	-0.8%	18.6%	CCOc1ccc2nc(SCC(=O)NCC3CCCO3)c(C#N)cc2c1 (stereo unspecified)
2.5	3.3%	-49.5%	-6.9%	C/C(=N\NC(=O)c1nc(C)cc(C)n1)c1ccccc1
-11.5	-2.0%	-0.3%	6.8%	O=C(Nc1ccccc1F)C1CCCN(S(=O)(=O)c2ccccc2)C1 (stereo unspecified)
nt	0.3%	-31.3%	6.2%	NC(=O)N/N=C/c1ccccc1OC(=O)c1cc2ccccc2oc1=O
-5.2	0.2%	0.6%	-8.9%	CN(CC(=O)Nc1cc([N+](=O)[O-])ccc1Cl)Cc1ccc(Br)cc1
2.3	-1.6%	-4.4%	-6.9%	Cc1ccccc1N1CCN(Cc2nc(Cc3ccccc3F)no2)CC1
nt	-2.0%	nt	15.2%	O=c1[nH]c(=O)n(CCCc2ccccc2)cc1-c1ccccc1
nt	2.0%	0.4%&-4.0%	-18.4%	COc1cc(NS(=O)(=O)c2ccc3[nH]c(=O)[nH]c3c2)cc(OC)c1
-2.1	-0.5%	-1.3%	0.3%	OC(COc1ccc(Cl)cc1)CN1CCN(c2cccc(Cl)c2)CC1 (stereo unspecified)
nt	?	nt	2.0%	CCN(C(=O)COC(=O)c1ccc(O)cc1O)c1c(N)n(Cc2ccccc2)c(=O)[nH]c1=O
nt	0.7%	-0.4%	-4.5%	CCCc1cc(=O)oc2cc(C)cc(OC(C)C(=O)N[C@@H](Cc3c[nH]c4ccccc34)C(=O)O)c12 (stereo partly specified)
8.4	1.0%	-2.5%	-5.8%	CCCN(CCC)C(=O)CSc1ncccc1C(=O)O
nt	2.5%	nt	-1.6%	Cc1ccc(NC(=O)c2cc(S(=O)(=O)N3CCOCC3)ccc2Cl)cc1S(=O)(=O)N1CCOCC1
-5.3	-0.2%	7.4%	-7.5%	O=C(CSc1cn(CCNC(=O)c2cccs2)c2ccccc12)NC1CCCCC1
1.0	7.9%	-0.2%	16.9%	Nn1c(SCC(=O)N2CCOCC2)nnc1-c1ccc(Cl)cc1Cl
-8.4	4.8%	-13.0%	-0.1%	CCc1ccc(C(=O)NNc2cc(Cl)ccc2Cl)cc1
-3.3	0.1%	-16.2%	-0.9%	CC(=O)c1c(N2CCN(c3ccc(F)cc3)CC2)nc(=S)n(-c2ccccc2)c1C
nt	4.3%	0.1%	1.0%	Cc1ccc(S(=O)(=O)NCC(=O)NCc2cc(=O)n(C)c(=O)n2C)cc1C
7.0	-1.7%	-1.5%	25.6%	CN(CC(=O)NC1CCCc2ccccc21)S(=O)(=O)c1ccc2c(c1)c(=O)n(C)c(=O)n2C (stereo unspecified)
6.4	0.4%	-14.6%	-3.2%	C/C(=N\NC(=S)Nc1cc(S(=O)(=O)N2CCOCC2)ccc1Cl)c1ccc(N2CCOCC2)cc1
-8.0	-0.3%	?	-10.9%	CCCOc1ccc(C(=O)C(CN2CCCC2)c2ccccc2)cc1 (stereo unspecified)
-4.4	0.4%	-6.4%	-5.0%	Cc1ccc(-n2[nH]c(C)c(C=Nc3ccc(S(=O)(=O)Nc4nc(C)cc(C)n4)cc3)c2=O)c(C)c1
4.4	1.0%	-2.6%	20.6%	COc1nc(N)nc(CC(=O)C2CC2)n1
-12.4	-0.4%	-11.9%	9.0%	CCc1ccc(-c2csc(NC(=O)C3=NN(c4ccccc4)C(=O)CC3)n2)cc1
2.2	-3.5%	3.9%	-10.3%	Cc1cnc(NS(=O)(=O)c2ccc(Cl)cc2)c(Br)c1
5.3	-3.9%	-3.2%	1.7%	CCOC(=O)CCc1c(C)c(C#N)c2nc3ccccc3n2c1-n1ccnc1C
-6.6	1.7%	-1.0%	-12.2%	CC(C1CC1)N(C(=O)NC1CCS(=O)(=O)C1)c1ccccc1 (stereo unspecified)
nt	-1.0%	nt	28.7%	CN(c1ccccc1)S(=O)(=O)c1cccc(NC(=O)CN2C(=O)NC3(CCCCC3)C2=O)c1
nt	0.5%	?	-1.1%	C=CCOc1c(Cl)cc(C(=S)N2CCCC2)cc1OCC
-10.5	0.9%	24.9%	1.0%	O=C(Nc1ccc(Oc2cccc(C(F)(F)F)c2)nc1)c1cccs1
nt	-1.1%	nt	-9.7%	COc1ccc(OC)c(N(CC(=O)Nc2cccc3ccccc23)S(C)(=O)=O)c1
2.0	-0.2%	-12.3%	?	CN(CC(=O)NCCc1ccccc1)S(=O)(=O)c1cnc[nH]1
nt	-0.8%	nt	1.2%	CCN(CC)c1nc(NNC(=O)c2ccccc2)nc(N(CC)CC)n1
nt	1.1%	nt	-11.8%	Cc1ccccc1OCCC(=O)OCC(=O)N1c2ccccc2NC(=O)C1(C)C
1.5	-5.7%	-75.3%	-12.1%	O=c1c2c(nc3cc(-c4ccc(F)cc4)[nH]n13)CCC2
nt	-0.5%	3.7%	8.1%	COc1cc(Nc2cccc[n+]2C)cc(OC)c1OC
1.8	0.2%	-36.3%	2.6%	C=CCc1c(C)nc(-c2ccccc2)nc1N/N=C(\C)c1ccc(N)cc1
-14.3	?	0.0%	21.8%	CN(C)c1ccc(N=Nc2ccc(S(=O)(=O)O)cc2)c2ccccc12
-3.8	-4.5%	-45.0%	?	O=C(O)C=C1CCN(c2ncc(C(F)(F)F)cc2Cl)CC1
5.3	-2.2%	?	-4.7%	O=C(Nc1ccc2nc3n(c(=O)c2c1)CCCC3)c1cc([N+](=O)[O-])ccc1F
-6.8	-5.7%	5.5%	2.9%	O=C(Nc1cccc(Cl)c1)Nc1cccc(Cl)c1
0.6	3.7%	-0.1%	-3.6%	Cc1nn(Cc2ccc(Cl)c(Cl)c2)c(C)c1NC(=O)c1sc2ccccc2c1Cl
-3.9	-2.1%	-12.2%	-3.7%	Cn1c(CO)cnc1SCC(=O)c1ccc(Cl)cc1
8.7	-1.5%	-2.6%	-3.6%	CC(C)NC(=O)CCn1nc(-c2ccc(Cl)cc2)c2ccccc2c1=O
nt	5.1%	3.4%	7.8%	Cc1ccc(-c2csc(NC(=O)CN3CCOCC3)n2)cc1
1.9	-2.0%	-8.1%	0.6%	CCN1CCN(Cc2ccc(NC(=O)CC3Oc4ccc(C)cc4NC3=O)cc2)CC1 (stereo unspecified)
3.4	0.3%	-2.1%&3.7%	41.4%	COc1ccc(NC(=O)C2CCCN(S(=O)(=O)c3c(C)[nH]c(=O)[nH]c3=O)C2)cc1OC (stereo unspecified)
nt	-1.1%	nt	-1.0%	NC(=S)NN=C1Cc2cccc3cccc1c23
-0.7	-1.6%	-28.5%	-13.7%	CCOC(=O)c1cc2cc(OC)ccc2nc1C
nt	-2.0%	-40.0%	?	O=C(CNC(=O)c1ccc(Cl)cc1)c1ccc(Cl)cc1
nt	-1.1%	nt	9.2%	C[C@H]1CN(S(=O)(=O)C(C)(C)C)[C@H](CCO)/C1=C\c1ccccc1
-1.5	-3.3%	14.9%	-9.7%	O=C(Cn1cnc2c(cnn2-c2ccccc2)c1=O)N1CCCc2ccccc21
nt	-3.3%	-0.6%	18.3%	CCc1ccc(OCC(=O)N(Cc2cccs2)C2CCS(=O)(=O)C2)cc1 (stereo unspecified)
3.2	-0.3%	4.8%	-27.1%	CCCOc1ccc(C(=O)O)cc1
-1.5	-1.1%	-10.4%	-4.8%	C=C(C)CN=C1NN=C(c2cc(C)n(-c3ccc(C)cc3)c2C)CS1
-0.2	-2.3%	-2.1%	-3.3%	O=C(NCC1CCCO1)c1ccc(NC(=O)C2C3C=CC(C3)C2C(=O)O)cc1 (stereo unspecified)

# Quoted at random: 2 compounds from above, in no set order.
GLA inh pH 4.5	Rango complex inh	miR-21 reporter	Rango release inh	canonical_smiles
4.4	1.0%	-2.6%	20.6%	COc1nc(N)nc(CC(=O)C2CC2)n1
8.4	1.0%	-2.5%	-5.8%	CCCN(CCC)C(=O)CSc1ncccc1C(=O)O

# New compounds follow:
GLA inh pH 4.5	Rango complex inh	miR-21 reporter	Rango release inh	canonical_smiles
nt	-4.7%	nt	0.0%	NCCCCCc1cn(CC(=O)NCCCCCCCCCCC(=O)N2CCNCC2)nn1
-17.2	6.6%	3.3%	-11.0%	COC(=O)C1=CC(C(=O)c2cccs2)=NN(c2ccc(OC)cc2)C1C(=O)OC (stereo unspecified)
nt	-2.4%	-0.6%	-14.8%	Cc1cc(NC(=O)CSc2nc3c(C)c(C)ccc3cc2C)no1
-1.3	-6.7%	26.9%	4.6%	O=c1[nH]c(-c2ccccn2)nc(C(F)(F)F)c1Br
-5.1	2.8%	?	1.8%	Cc1cccc(CSC(Nc2ccc(F)cc2)=C(C#N)C#N)c1
-18.2	6.6%	-2.6%	-4.9%	CC(C)(C)c1cc(C(=O)Nc2cccc3ccccc23)ccn1
nt	6.3%	-18.6%	1.6%	O=C(NC1CCCCCC1)c1ccc(-n2cnnc2)cc1
-1.7	-0.4%	-8.9%	-3.8%	N#CCCCn1c(O)c(N=NC(=O)C(O)c2ccccc2)c2ccccc21 (stereo unspecified)
2.6	-1.5%	-27.3%	-2.6%	Cn1c(CO)cnc1SCc1ccccc1
-8.0	0.5%	-4.7%	-6.3%	O=C(N/N=C\c1ccc(OCC(=O)N2CCCC2)cc1)C(=O)Nc1ccccc1F
1.0	6.2%	0.3%	5.5%	CCOc1ccc(S(=O)(=O)NCCC(=O)NC2=NCCS2)cc1
10.0	0.7%	-5.7%	-26.4%	CCCNC(=O)COc1ncnc2sc(C)c(C)c12
0.4	0.4%	-0.8%	-0.1%	O=C(O)Cn1cc(C(=O)c2cccs2)c2ccccc21
nt	2.1%	nt	-7.8%	Cc1csc(NC(C)c2nc3cc(C(F)(F)F)ccc3n2CCCO)n1 (stereo unspecified)
nt	1.4%	12.4%	-10.3%	COc1ccc(CN2CCCC(C(=O)c3ccc(Cl)cc3)C2)cc1Cn1cccn1 (stereo unspecified)
2.8	2.7%	-4.9%	3.4%	NC(=O)C1CCN(C(=S)c2cccs2)CC1
-8.1	-0.4%	-28.5%	15.5%	c1cncc(-c2nc3c(ccc4ccccc43)[nH]2)c1
6.9	2.6%	-54.9%	-11.9%	O=C(CSC(=S)N1CCSCC1)c1ccc(Cl)cc1
-2.1	3.2%	-1.2%	2.3%	CCOC(=O)Cc1nnc(NC(=O)C(CC)Sc2nnc3c4ccccc4n(C)c3n2)s1 (stereo unspecified)
-1.1	-5.1%	-1.2%	48.0%	COC(=O)CCCC(=O)Nc1c(F)c(F)c(F)c(F)c1F
-16.2	-3.8%	-3.9%	-1.8%	O=C1C2CC=CCC2C(=O)N1CC(=O)N(Cc1ccccc1)C1CCS(=O)(=O)C1 (stereo unspecified)
1.2	-3.8%	-11.1%	0.3%	CCN(CC)CCOC(=O)c1ccc(Cl)cc1
-3.1	-1.1%	-47.5%	1.6%	CC(C)C(=O)Nc1ccc(NC(=O)c2ccccc2Cl)nc1
3.3	-2.9%	-10.9%	8.0%	O=C(OCC(=O)N1CCc2ccccc21)c1ccc(Cl)nc1
8.3	1.2%	1.1%	4.9%	CC12CC3CC(C)(C1)CC(CN1CCOCC1)(C3)C2
nt	-1.6%	nt	3.9%	CN(Cc1ccccc1)C(=O)COC(=O)CN1C(=O)c2ccccc2C1=O

# Structural class: the compounds so far with a tert-butyl group (2)
GLA inh pH 4.5	Rango complex inh	miR-21 reporter	Rango release inh	canonical_smiles
nt	-1.1%	nt	9.2%	C[C@H]1CN(S(=O)(=O)C(C)(C)C)[C@H](CCO)/C1=C\c1ccccc1
-18.2	6.6%	-2.6%	-4.9%	CC(C)(C)c1cc(C(=O)Nc2cccc3ccccc23)ccn1

# Compound activity from PubChem BioAssay.

# These rows are one share of the data; count on the stated rates, not on these rows.
